# Kir21 inh: blocks the mouse Kir2.1 inward-rectifier potassium channel; P35561; HEK293-Kir2.1, FluxOR thallium flux fluorescence; hits give low values; B-score at 10 µM; 310,000 tested, 0.85% active; AID 1672;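 active means fluorescence ratio B-score at or below minus 3 SD of library scores, with starting-brightness B-score within 2 SD, cut at about -4.2 in these data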;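 further: channel flux triggered by added potassium and thallium sulfate stimulus; B-score of peak minus minimum fluorescence over baseline after thallium stimulus; more negative B-score means stronger Kir2.1 block with less thallium influx; some compounds called inactive have numbers as strong as hits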
# Target sequence (P35561 whole entry, looked up): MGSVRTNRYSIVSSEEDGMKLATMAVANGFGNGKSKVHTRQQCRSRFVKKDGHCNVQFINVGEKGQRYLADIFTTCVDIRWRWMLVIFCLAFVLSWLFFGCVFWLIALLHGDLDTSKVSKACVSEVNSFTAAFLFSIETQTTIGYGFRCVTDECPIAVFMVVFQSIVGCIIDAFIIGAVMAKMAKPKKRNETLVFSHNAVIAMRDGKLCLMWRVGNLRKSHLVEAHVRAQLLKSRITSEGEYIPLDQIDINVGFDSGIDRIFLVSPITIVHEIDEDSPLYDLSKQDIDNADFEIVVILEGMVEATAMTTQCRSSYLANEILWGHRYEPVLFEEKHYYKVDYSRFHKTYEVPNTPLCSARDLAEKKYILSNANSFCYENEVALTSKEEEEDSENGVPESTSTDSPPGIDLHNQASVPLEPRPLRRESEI
# Numbers without * were called inactive; & = joins results of further samples.
# Start of the data: the first 7 compounds (preview)
Structure | Kir21 inh
CCOC(=O)c1c(C)c(C(=O)NCCCN2CCCC2=O)c(C)n1CC | -0.68
Cc1ccc(C(=O)Nc2cccc(C(F)(F)F)c2)cc1Nc1cncnc1 | 1.1
O=C(CN1C(=O)c2ccccc2C1=O)N1CCN(S(=O)(=O)c2ccccc2)CC1 | 0.49
C/C(CC(=O)Nc1ccc(Cl)c(C(F)(F)F)c1)=N\NC(=O)c1cnccn1 | -0.38
Cc1ccc(NC(=O)CCC(=O)NNC(=O)c2ccccc2)c(C)c1 | 0.33
CCOc1ccc(NC(=S)NC(=O)/C=C/c2ccc(OC)c(OC)c2)c([N+](=O)[O-])c1 | -2.4
Cn1c(SCC(=O)Nc2cc(C(C)(C)C)nn2-c2ccccc2)nc2ccccc21 | 0.35

# Results, previewed entries included:
Structure | Kir21 inh
CCOC(=O)c1c(C)c(C(=O)NCCCN2CCCC2=O)c(C)n1CC | -0.68
Cc1ccc(C(=O)Nc2cccc(C(F)(F)F)c2)cc1Nc1cncnc1 | 1.1
O=C(CN1C(=O)c2ccccc2C1=O)N1CCN(S(=O)(=O)c2ccccc2)CC1 | 0.49
C/C(CC(=O)Nc1ccc(Cl)c(C(F)(F)F)c1)=N\NC(=O)c1cnccn1 | -0.38
Cc1ccc(NC(=O)CCC(=O)NNC(=O)c2ccccc2)c(C)c1 | 0.33
CCOc1ccc(NC(=S)NC(=O)/C=C/c2ccc(OC)c(OC)c2)c([N+](=O)[O-])c1 | -2.4
Cn1c(SCC(=O)Nc2cc(C(C)(C)C)nn2-c2ccccc2)nc2ccccc21 | 0.35
O=C(Nc1cccnc1Cl)c1cc(-c2ccco2)on1 | 1.3
COc1c2occc2c(OC)c2c(=O)cc(C(F)(F)C(F)(F)F)oc12 | 0.5
COc1ccc(N2C(=O)CC(N3CCN(C(=O)c4ccco4)CC3)C2=O)cc1 (centres undefined) | -1.7
O=c1c2ccccc2c(-c2ccc(Br)cc2)nn1Cc1ccccc1 | 0
Cc1ccc(OCC(=O)N/N=C2/SCC(=O)N2Cc2ccccc2)cc1 | -0.01
Cc1cc(C)cc(N2C(=O)CSC2c2cccs2)c1 (centres undefined) | -1.3
COc1ccc(C2Nc3ccccc3C(=O)N2Cc2ccccc2)cc1 (centres undefined) | -1.2
C=CCn1c(SCC(=O)Nc2cc(NC(C)=O)ccc2OC)nnc1-c1ccccn1 | -3.4
CC1(C)OC(=O)N(CC(=O)Nc2ccccc2)C1(C)O (centres undefined) | -0.12
COc1cccc(C(=O)CN2CCN(S(=O)(=O)c3cccc([N+](=O)[O-])c3)CC2)c1 | -1.7
CCOC(=O)C1(Cc2ccccc2)CCCN(C(=O)c2cn[nH]c2)C1 (centres undefined) | 0.36
Cc1c(OC(C)C(=O)NCC(O)c2ccccc2)ccc2c3c(c(=O)oc12)CCCC3 (centres undefined) | 0.19
CCN=C1SC(C(=O)Nc2ccc(OC)cc2)CC(=O)N1CC (centres undefined) | -1.7
Cc1ccc(N=C2CCCN2Cc2ccccc2)c(C#N)c1 | -0.39
CCCN(CCC)S(=O)(=O)c1ccc(C(=O)O)cc1 | -0.05
Cc1cc(=O)oc2c1ccc1ccccc12 | -0.31
O=c1cc(CSc2nnc(-c3cccnc3)n2-c2ccccc2F)nc2sccn12 | 0.75
O=C(COc1ccc(Cl)cc1)N1CCN(S(=O)(=O)c2ccccc2)CC1 | -1.9
c1ccc2c(c1)CCCn1nnnc1-2 | -0.41
CC(C)Oc1ccc(C(=O)Nc2ncn[nH]2)cc1 | -0.53
COc1cc(CCC(=O)Nc2ccc(C)c(S(=O)(=O)N(C)C)c2)cc(OC)c1OC | -0.4
Clc1ccc(CSc2nnc(CN3CCOCC3)n2-c2ccccc2)cc1Cl | -1.9
COc1ccc(-n2c(SCC(=O)Nc3ccc4c(c3)OCO4)nc3c(c2=O)SCC3)cc1 | 0.46

# Remaining list, next part:
Structure | Kir21 inh
COC(=O)c1cc(Cl)cc2c(C)c(C3(O)CCCCC3)[nH]c12 | -0.06
Cc1cc(C)c(S(=O)(=O)Nc2ncn[nH]2)c(C)c1 | -0.87
COc1ccc(C(=O)OCCCOC(=O)c2ccc(OC)cc2OC)c(OC)c1 | -0.6
CN(C)c1nc(N)nc(-c2ccco2)n1 | -1.4
COC(=O)CSc1nnc(-c2sc3ccccc3c2Cl)o1 | 0.2
CCCCSc1cc(C)nc(N)n1 | 0.88
O=C(NCCCN1CCOCC1)c1csc2c1CCCC2 | -0.37
CCOC(=O)c1c(C)n(CC)c2ccc(OC(=O)c3ccc([N+](=O)[O-])cc3)cc12 | -1.1
COc1cc(/C=N/Nc2ccccc2[N+](=O)[O-])ccc1OC(=O)c1ccccc1F | -2.1
CCCS(=O)(=O)N1CCC(C(=O)NCc2ccc(F)cc2)CC1 | 0.99
CC1=C(C(=O)Nc2ccc(Cl)cc2)C(c2cccs2)n2nnnc2N1 (centres undefined) | 0.71
CS(=O)(=O)N(CC(=O)N1CCCCCC1)c1cccc(Cl)c1Cl | 1.1
O=C(c1ccccc1NS(=O)(=O)c1cccc([N+](=O)[O-])c1)N1CCOCC1 | 0.66
CCCC(C)C(=O)Nc1ccc(F)c(Cl)c1 (centres undefined) | -1.4
COc1ccc(NC(=O)COc2nc3ccccc3nc2N2CCOCC2)c(OC)c1 | -0.76
O=C(NCc1ccco1)c1ccccc1F | -0.5
Cn1c(=O)c2c(n(C)c1=O)=NC1(CCCCC1)ON=2 | 3.2
CCOC(=O)C1C(c2ccccc2)C(C(=O)OCC)S(=O)(=O)C(CCN(CC)CC)S1(=O)=O (centres undefined) | -0.84
COc1ccc(NC(=O)c2ccc(C)cc2)c[n+]1[O-] | -1.7
Brc1ccc(-c2noc(-c3ccccc3)n2)o1 | -0.32
COc1ccc(C2CC(c3ccc([N+](=O)[O-])cc3)=NN2C(C)=O)cc1 (centres undefined) | -0.44
COc1ccc(CCN2C(=O)CC(NNC(=O)c3ccccc3Br)C2=O)cc1 (centres undefined) | -0.11
CC(C)(C)OC(=O)N1CCC[C@@H]1C(=O)N1CCC(C(=O)O)CC1 | -1
CCNC(=O)NC(=O)C(C)On1nnc2ccc(S(=O)(=O)N(CC)CC)cc21 (centres undefined) | 0.17
COc1cccc(C(=O)NNS(=O)(=O)c2ccc(F)cc2)c1 | 0.01
Cc1ccc(NC(=O)c2sc3nc(C)cc(C)c3c2N)cc1 | 0.58
CCCc1cc(=O)oc2c(C)c3occ(C)c3cc12 | 1.3
Cc1c(NC2=CC(=O)CC(C)(C)C2)ccc([N+](=O)[O-])c1C | -1
O=C(O)CCc1nc(-c2cccs2)no1 | 0.84
COc1ccc(-n2c3c(cc(C(=O)Nc4cccc(C)n4)c2=O)C(=O)CC(C)(C)C3)cc1 | -2

# Next part
Structure | Kir21 inh
COc1ccc(CCn2nnnc2C(C(C)C)N2CCC(C(N)=O)CC2)cc1OC (centres undefined) | 0.47
CC(C)N1CC(C(=O)Nc2cc(Cl)cc(Cl)c2)CC1=O (centres undefined) | -0.67
CCC(C)NC(=O)/C=C/c1ccc(S(=O)(=O)NCc2ccco2)cc1 (centres undefined) | 0.63
CCCCn1c(-c2ccco2)nc2oc3ccccc3c(=O)c2c1=O | 0
CCOC(=O)CSc1nnc(COc2ccc3ccccc3c2)o1 | -2.2
CN(C)S(=O)(=O)c1cccc(C(=O)OCC(=O)Nc2sccc2C#N)c1 | 3
CCN(CC)c1ccc(C(=O)OCC(=O)N2CCN(c3ccccc3)CC2)cc1 | 1.1
CCCC(=O)Nc1nn(CCC)c2nc3ccccc3cc12 | -0.32
CC(=C/c1ccccc1)/C=N/NC(=O)c1ccccn1 | 1.3
Cc1ccc(S(=O)(=O)NCCCC(=O)O)cc1 | 1.4
CN=C(c1ccc(C)cc1)n1c(=S)nc(-c2ccc(C)cc2)n(C)c1=S | 0.43
COC(=O)CCCC1=CC2=CC(=O)C(C)(OC(=O)c3cccs3)C(=O)C2=CN1Cc1ccc2c(c1)OCO2 (centres undefined) | -0.5
Cc1ccc(C(=O)CSc2nnc(CNc3ccc(C)cc3C)n2Cc2ccco2)cc1 | -1.6
NC(=O)C1CCN(C(=O)Cn2cccc2C(=O)c2ccccc2)CC1 | 0.53
CCCCCC1CC(=O)N(Cc2ccccc2)C(=O)N1 (centres undefined) | 0.33
C=CCNC(=O)c1c(-c2c(F)cccc2Cl)noc1C | -1.3
CC(C)(NC(=O)N1CCCC1)c1cccc(C(C)(C)NC(=O)N2CCCC2)c1 | -0.24
COc1cc(OC)cc(C(=O)Oc2c(CN3CCOCC3)cc(Cl)c3cccnc23)c1 | -0.63
O=C(O)c1ccc(Cn2c(SCc3cc(=O)n4cc(Br)ccc4n3)nc3ccsc3c2=O)cc1 | 0.98
Cc1cc(C)n(CCCNC(=O)Cn2nnnc2CN2C[C@@H](C)O[C@@H](C)C2)n1 | 0.16
Cc1nc(NS(=O)(=O)c2ccccc2)sc1C(=O)NN | 0.17
COc1ccc(N(CC(=O)Nc2ccc(C(C)C)cc2)S(=O)(=O)c2c(C)noc2C)cc1 | 2.7
CC(=O)c1ccc(NCCC(=O)c2ccccc2)cc1 | -1.2
C=CCn1c(-c2csc(-c3ccc(Cl)cc3)n2)n[nH]c1=S | 0.46
N#CC1=C(N)Oc2cc(O)ccc2C1c1ccncc1 (centres undefined) | -1.3
CC1CC(=O)Nc2ccccc2N1C(=O)Nc1ccc(F)cc1F (centres undefined) | 1.8
Cc1n[nH]c(C)c1S(=O)(=O)N(CC(=O)Nc1ccc2c(c1)OCCO2)c1ccc(C(C)C)cc1 | -0.24
Cc1ccc(C(C(=O)NC(C)(C)C)N(CC2CCCO2)C(=O)CCC(=O)Nc2ccccn2)cc1 (centres undefined) | 0.24
O=C(CCc1nc(-c2ccccc2)no1)NCC1CCCO1 (centres undefined) | -0.63
C[C@H]1O[C@H]1P(=O)(O)O | 0.39

# The list continues:
smiles	Kir21 inh
CCOC(=O)C(NC(=O)c1ccccc1)(N1CCOCC1)C(F)(F)F (centres undefined)	-0.1
CCOCCCNC(=O)CC1Oc2ccc(C)cc2NC1=O (centres undefined)	-0.15
Cc1ccc(-n2c(-c3ccncc3)n[nH]c2=S)cc1	0.47
CCC(=O)N1c2ccccc2NC2=C(C(=O)CCC2)C1c1ccccc1 (centres undefined)	-0.37
C=CCn1c(COc2ccccc2)nnc1SCC(=O)Nc1ccc(S(N)(=O)=O)cc1	-0.33
CN(C)c1nc(Oc2ccc(=O)[nH]n2)nc(N2CCOCC2)n1	-0.37
CCC(=O)Nc1cc(-c2nn(C)c(=O)c3ccccc23)ccc1OC	0.57
Nc1c(Br)cc(Br)cc1CNC1CCC(O)CC1 (centres undefined)	0.1&1.8
O=C(N/N=C/c1ccc(OCc2ccccc2)cc1)c1ccco1	-0.27
Cc1cc(C)c(C(N)=O)c(NC(=O)Nc2ccccc2)n1	-0.87
CCOC(=O)c1cc(NC(=O)N(C(C)C)C2CCCCC2)c(C)nc1C	1.3
O=C(NCCCn1cccn1)C1CCC(=O)N(Cc2ccccc2F)C1 (centres undefined)	0.02
O=C(CN1CCN(c2cccc(Cl)c2)CC1)NCc1ccccc1	0.8
Cc1cccc(NC(=S)NC(=O)CC2CC(C)(C)OC2=O)c1 (centres undefined)	-0.03
O=C(O)c1nccnc1C(=O)NCCc1c[nH]c2ccccc12	0.29
Cc1ccc(/C=N/NC(=O)c2ccc(C(=O)N/N=C/c3ccc(C)s3)o2)s1	-1.9
CCCN(CCC)C(=O)CC(c1ccccc1)c1cc(C)ccc1O (centres undefined)	-0.06
COc1ccc(CNC(=O)CCCn2c(=S)[nH]c3cc4c(cc3c2=O)OCO4)cc1	0.03
CCOc1ccc(C(=O)N/N=C(/C)C2C(=O)c3ccccc3C2=O)cc1	1.6
COc1ccc(OCCSc2nc(N)cc(N)n2)cc1	-0.03

# 6 structures out of the list, sorted by formula weight, lowest first.
smiles	Kir21 inh
CN(C)c1nc(Oc2ccc(=O)[nH]n2)nc(N2CCOCC2)n1	-0.37
O=C(N/N=C/c1ccc(OCc2ccccc2)cc1)c1ccco1	-0.27
CCOc1ccc(C(=O)N/N=C(/C)C2C(=O)c3ccccc3C2=O)cc1	1.6
CCOC(=O)C(NC(=O)c1ccccc1)(N1CCOCC1)C(F)(F)F (centres undefined)	-0.1
CCOC(=O)c1cc(NC(=O)N(C(C)C)C2CCCCC2)c(C)nc1C	1.3
Nc1c(Br)cc(Br)cc1CNC1CCC(O)CC1 (centres undefined)	0.1&1.8

# Further results:
smiles	Kir21 inh
CC(=O)Nc1nnc(-c2ccccn2)o1	-0.3
[O-]/[N+](=C/c1ccc(F)cc1)c1ccccc1	0.09
O=C(c1cc(COc2ccc(F)c(F)c2)on1)N1CCOCC1	1.4
Cc1cc(C)n(CCNC(=O)c2cc(COc3ccc(F)cc3Cl)on2)n1	0.07
CCCCC(=O)Nc1cc(Cl)ccc1C(=O)O	1.5
Cc1[nH]c(=O)[nH]c(=O)c1S(=O)(=O)Nc1ccc(F)cc1Cl	-1.4
O=C(NN1C(=O)C2C(C1=O)C1C=CC2C12CC2)c1ccc(Cl)cc1 (centres undefined)	-0.58
CCCC12CN3CC(C)(CN(C1)C3c1ccco1)C2=O (centres undefined)	-0.58
CC1CCc2cccc3c(O)cc(=O)n1c23 (centres undefined)	2.1
Cc1ccc(C(=O)N2CCCC2)cc1S(=O)(=O)Nc1ccccc1	-1.3
CCOC(=O)C1(Cc2ccccc2)CCCN(C(=O)c2ccc(-n3ccnc3)cc2)C1 (centres undefined)	1.3
CCOC(=O)N/N=C\C=C\c1ccco1	-0.67
O=C(NCCc1ccccc1)c1ccc(CS(=O)(=O)Cc2ccc(F)cc2)o1	1.2
COc1cccc(CC2(CO)CCCN(Cc3cn[nH]c3-c3cc(C)ccc3C)C2)c1 (centres undefined)	0.25
COc1ccccc1NS(=O)(=O)c1cccc(C(=O)N2CC(C)OC(C)C2)c1 (centres undefined)	-0.72
COc1ccc(C2C=C(C)Nc3ncnn32)cc1 (centres undefined)	-1.6
COc1ccccc1OCC(=O)N/N=C1\CCc2ccccc21	-0.62
O=C(Nc1ccc(-c2nc3cccnc3s2)cc1)c1ccc(Cl)nc1	2.9
Cc1cc(C)nc(Nc2nc(=O)c3ccccc3s2)n1	-0.47
CC1=C(C(=O)Nc2ccccc2C)C(c2cccnc2)n2nc(CCCO)nc2N1 (centres undefined)	0.08

# Assay outcomes (PubChem BioAssay)

# These rows are one share of the data; most or all hits stand in other tables.
